# Vaccinia inh – blocks a specific stage of Vaccinia orthopoxvirus infection; actives 0.01% (n = 89,000); Vaccinia-infected cells, mCherry/Venus stage reporter fluorescence; active compounds read low; some inactives read as strong as hits; activity change (mCherry), % (no concentration beside the values);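 active = mCherry past -33% and 40 or more points under the early reporter, replicates agreeing; inconclusive = past -33% without that gap or agreement; tested in A549 cells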;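 note: scaled between vehicle wells and reference inhibitor wells; 23 nL library stock went into each well; one replicate is shown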
# Vaccinia inh Venus – recorded beside Vaccinia inh, whose call it bears; activity change (Venus), %; measured here: Venus reporter, other viral stage;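 negative = less Venus signal; first of two replicates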
# * = called active by the depositor; ? = inconclusive; nt = no result given; & = joins results of further samples.
no.	SMILES	Vaccinia inh	Vaccinia inh Venus
1	Cc1noc(C)c1NC(=O)Nc1ccc2c(c1)C(=O)N([C@@H](C)CO)C[C@@H](C)[C@@H](CN(C)CC1CC1)OCCCC[C@@H](C)O2	21	10
2	CN1CCN(C(=O)C[C@@H]2CC[C@H]3[C@@H](COc4ccc(NC(=O)C5CCCC5)cc4C(=O)N3C)O2)CC1	22	10
3	Cn1cnc(CCNC(=O)C[C@H]2CC[C@H]3[C@@H](COC[C@H](O)CN3C(=O)C3CC3)O2)c1	2	1
4	Cc1ccc(S(=O)(=O)Nc2ccc3c(c2)C(=O)N([C@@H](C)CO)C[C@@H](C)[C@@H](CN(C)Cc2ccc4c(c2)OCO4)O3)cc1	?	nt
5	COCCOC(=O)N1C(=O)[C@@]2(c3cc(C#CCC(C(=O)OC)C(=O)OC)ccc31)[C@H](c1ccccc1OCCO)N1[C@H](c3ccccc3)[C@H](c3ccccc3)OC(=O)[C@H]1[C@@H]2C(=O)NC[C@H](O)c1ccccc1	18	10
6	CC(C)C#Cc1ccc2c(c1)O[C@@H](CN(C)Cc1ccccn1)[C@H](C)CN([C@@H](C)CO)S2(=O)=O	?	nt
7	C[C@@H]1CN([C@@H](C)CO)C(=O)c2cc(/C=C/c3ccccc3)cnc2O[C@H]1CN(C)S(=O)(=O)c1cccs1	-11	-15
8	O=C(c1ccccc1F)N1C[C@H]2[C@@H](c3ccccc31)[C@H](CO)N2C(=O)c1ccncc1	13	6
9	C[C@@H]1CCCCO[C@@H](CN(C)C(=O)Nc2cccc3ccccc23)[C@@H](C)CN([C@H](C)CO)C(=O)c2cc(NC(=O)CCCCCC(=O)Nc3ccccc3N)ccc2O1	14	8
10	O=C(C[C@@H]1CC[C@H](NS(=O)(=O)c2ccc(F)cc2)[C@H](CO)O1)NC1CCC1	6	7
11	CC(C)C[C@@H]1COCc2cn(nn2)CC[C@H](C)C(=O)N1	7	11
12	O=C(Nc1cccc(F)c1)N1C[C@H]2[C@@H](c3ccccc31)[C@@H](CO)N2C(=O)Cc1ccccc1	-16	-9
13	CN(C)CC(=O)N1[C@H](C#N)[C@@H](c2ccc(-c3ccccc3F)cc2)[C@@H]1CO	-26	-13
14	Cc1cccc(C)c1-n1nnnc1SCc1nc(N)nc(N(C)C)n1	1	-3
15	COc1ccc(S(=O)(=O)N(C)C[C@@H]2Oc3ccc(NC(=O)Nc4cccc5ccccc45)cc3C(=O)N([C@@H](C)CO)C[C@@H]2C)cc1	-9	-15
16	CC(C)CC#Cc1cnc2c(c1)C(=O)N([C@@H](C)CO)C[C@H](C)[C@@H](CN(C)S(=O)(=O)c1cn(C)cn1)O2	4	16
17	COc1ccc(CN(C)C[C@H]2OCCCC[C@@H](C)Oc3ccc(NS(=O)(=O)c4ccc(F)cc4)cc3C(=O)N([C@@H](C)CO)C[C@H]2C)cc1	?	nt
18	O=C(N[C@H]1CC[C@@H](CCNS(=O)(=O)Cc2ccccc2)O[C@H]1CO)c1ccc2c(c1)OCO2	1	2
19	CO[C@@H]1CN(C)C(=O)c2cc(NC(=O)C3CCC3)ccc2OC[C@@H](C)N(C(=O)NC(C)C)C[C@@H]1C	1	-2
20	CCNC(=O)C[C@@H]1CC[C@@H]2[C@H](COC[C@@H](O)CN2C(=O)C2CCOCC2)O1	9	11
21	C[C@@H]1CCCCO[C@H](CN(C)Cc2ccc(C(=O)O)cc2)[C@H](C)CN([C@H](C)CO)C(=O)c2cc(NC(=O)Cc3ccccc3)ccc2O1	26	6
22	CC(C)NC(=O)N[C@H]1C=C[C@H](CC(=O)NCCN2CCCC2)O[C@H]1CO	0	4
23	COc1ccc2c3c([nH]c2c1)[C@@H](CO)N(C(=O)C1CC1)CC31CN(C(=O)c2ccncc2)C1	5	1
24	C[C@@H]1CN([C@@H](C)CO)C(=O)c2cc(C#CCc3ccccc3)cnc2O[C@@H]1CN(C)CC1CCOCC1	-29	-14
25	C[C@@H]1CN([C@H](C)CO)C(=O)c2cc(NC(=O)CCC(F)(F)F)ccc2O[C@@H]1CN(C)S(=O)(=O)c1ccc(F)cc1	-6	-2
26	CCCC#Cc1ccc2c(c1)O[C@H](CN(C)Cc1ccc3c(c1)OCO3)[C@@H](C)CN([C@H](C)CO)S2(=O)=O	?	nt
27	COc1ccccc1NC(=O)N[C@@H]1CC[C@@H](CCNS(=O)(=O)c2ccc(C)cc2)O[C@@H]1CO	2	-4
28	C[C@H](CO)N1C[C@H](C)[C@H](CN(C)Cc2ccc(Cl)c(Cl)c2)Oc2ccc(NC(=O)CCN3CCOCC3)cc2CC1=O	-13	-8
29	CCCN(C)C[C@@H]1Oc2cc(C#Cc3cccc(OC)c3)ccc2S(=O)(=O)N([C@H](C)CO)C[C@@H]1C	-31	-16
30	C[C@@H]1CN([C@@H](C)CO)C(=O)c2cc(NC(=O)Nc3ccc(F)cc3)ccc2O[C@@H](C)CCCCO[C@H]1CN(C)CC1CC1	-5	2
31	C[C@H]1CN([C@@H](C)CO)C(=O)c2cc(C3=CCCC3)cnc2O[C@@H]1CN(C)C(=O)c1ccncc1	14&22	9&12
32	COc1ccc(NC(=O)Nc2ccc3c(c2)[C@H]2C[C@H](CC(=O)N4CCN(C)CC4)O[C@H](CO)[C@H]2O3)cc1	-1	3
33	Cc1ccc(S(=O)(=O)Nc2ccc3c(c2)C(=O)N([C@H](C)CO)C[C@H](C)[C@@H](CN(C)Cc2ccc(C(=O)O)cc2)OCCCC[C@@H](C)O3)cc1	20	19
34	COc1ccc(CN(C)C[C@@H]2Oc3c(NC(=O)C4CC4)cccc3C(=O)N([C@@H](C)CO)C[C@H]2C)cc1	-20	-13
35	CCCN1[C@@H]2Cn3c(ccc(/C=C/c4ccccc4)c3=O)[C@H]1[C@@H](C(=O)NCC1CC1)[C@@H]2CO	-10	-6
36	CC(C)CC#Cc1ccc2c(c1)O[C@@H](CN(C)C(=O)c1cccc(F)c1)[C@@H](C)CN([C@@H](C)CO)S2(=O)=O	?	nt
37	C[C@@H](NC(=O)C[C@@H]1C[C@@H]2c3cc(NC(=O)C4CCOCC4)ccc3O[C@@H]2[C@H](CO)O1)c1ccccc1	-2	-3
38	C[C@H]1CN([C@@H](C)CO)C(=O)Cc2cc(NC(=O)Nc3ccc(F)cc3)ccc2O[C@H]1CN(C)C(=O)Nc1ccc(F)cc1	6	5
39	C[C@H]1CN([C@@H](C)CO)C(=O)c2cccc(NC(=O)c3nc4ccccc4s3)c2O[C@@H]1CN(C)S(C)(=O)=O	6	17
40	C[C@@H]1CN([C@@H](C)CO)C(=O)c2cc(NC(=O)C3CCCCC3)ccc2O[C@@H](C)CCCCO[C@H]1CN(C)C(=O)CCC(F)(F)F	-34	-24
41	O=C(C[C@@H]1CC[C@@H]2NC[C@H](O)COC[C@H]2O1)NC1Cc2ccccc2C1	5	17
42	COc1ccc(S(=O)(=O)Nc2ccc3c(c2)C(=O)N([C@H](C)CO)C[C@@H](C)[C@@H](CN(C)S(=O)(=O)c2ccc(F)cc2)O3)cc1	4	3
43	COc1ccc(NC(=O)N(C)C[C@@H]2Oc3ccc(NS(=O)(=O)c4ccc(OC)cc4)cc3CC(=O)N([C@@H](C)CO)C[C@@H]2C)cc1	-5	-1
44	O=C(C[C@H]1C[C@H]2c3cc(NC(=O)NC4CCCC4)ccc3O[C@H]2[C@H](CO)O1)NCCN1CCCCC1	6	8
45	COc1ccccc1-c1cnc2c(c1)C(=O)N([C@H](C)CO)C[C@H](C)[C@H](CN(C)C)O2	27	14
46	OC[C@@H]1[C@@H](c2ccc(/C=C/c3ccccc3)cc2)[C@@H]2CN(Cc3ccncc3)CCCCN12	-1	0
47	Cc1noc(C)c1NC(=O)Nc1ccc2c(c1)C(=O)N([C@H](C)CO)C[C@H](C)[C@@H](CN(C)S(=O)(=O)c1cccs1)O2	6	-11
48	O=C(c1ccncc1)N1CC(=O)N2[C@H](CO)[C@H](c3ccc(-c4cccnc4)cc3)[C@H]2C1	15	5

# A section from the list above, as a working copy:
no.	SMILES	Vaccinia inh	Vaccinia inh Venus
40	C[C@@H]1CN([C@@H](C)CO)C(=O)c2cc(NC(=O)C3CCCCC3)ccc2O[C@@H](C)CCCCO[C@H]1CN(C)C(=O)CCC(F)(F)F	-34	-24
41	O=C(C[C@@H]1CC[C@@H]2NC[C@H](O)COC[C@H]2O1)NC1Cc2ccccc2C1	5	17
42	COc1ccc(S(=O)(=O)Nc2ccc3c(c2)C(=O)N([C@H](C)CO)C[C@@H](C)[C@@H](CN(C)S(=O)(=O)c2ccc(F)cc2)O3)cc1	4	3
43	COc1ccc(NC(=O)N(C)C[C@@H]2Oc3ccc(NS(=O)(=O)c4ccc(OC)cc4)cc3CC(=O)N([C@@H](C)CO)C[C@@H]2C)cc1	-5	-1
44	O=C(C[C@H]1C[C@H]2c3cc(NC(=O)NC4CCCC4)ccc3O[C@H]2[C@H](CO)O1)NCCN1CCCCC1	6	8
45	COc1ccccc1-c1cnc2c(c1)C(=O)N([C@H](C)CO)C[C@H](C)[C@H](CN(C)C)O2	27	14
46	OC[C@@H]1[C@@H](c2ccc(/C=C/c3ccccc3)cc2)[C@@H]2CN(Cc3ccncc3)CCCCN12	-1	0
47	Cc1noc(C)c1NC(=O)Nc1ccc2c(c1)C(=O)N([C@H](C)CO)C[C@H](C)[C@@H](CN(C)S(=O)(=O)c1cccs1)O2	6	-11
48	O=C(c1ccncc1)N1CC(=O)N2[C@H](CO)[C@H](c3ccc(-c4cccnc4)cc3)[C@H]2C1	15	5

# Later entries:
no.	SMILES	Vaccinia inh	Vaccinia inh Venus
49	COc1ccc(CN2[C@H](CO)[C@@H]3c4ccccc4N(C(=O)c4ccccc4)C[C@@H]32)cc1	-16	-6
50	CCCN1C[C@H](C)[C@H](OC)CN(C)C(=O)c2ccc(NS(=O)(=O)c3ccccc3)cc2OC[C@H]1C	-1	6
51	CC(C)NC(=O)Nc1ccc2c(c1)CC(=O)N([C@@H](C)CO)C[C@@H](C)[C@H](CN(C)C(=O)Nc1ccc3c(c1)OCO3)O2	6	10
52	O=C(C[C@H]1C=C[C@H](NC(=O)Nc2ccc3c(c2)OCO3)[C@H](CO)O1)NCCCN1CCOCC1	2	0
53	COCC(=O)N1[C@H](CO)[C@@H](c2ccccc2)C12CN(Cc1cc(F)ccc1F)C2	2	-1
54	C[C@H]1CN([C@@H](C)CO)C(=O)c2cccc(NC(=O)NC3CCCCC3)c2O[C@H]1CN(C)C(=O)NC1CCCCC1	-33	-25
55	O=C(Nc1cccc(Cl)c1)N1C[C@@H]2[C@H](c3ccccc31)[C@H](CO)N2Cc1cccnc1	5	-8
56	Cc1noc(C)c1NC(=O)N(C)C[C@@H]1Oc2ccc(NC(=O)NC3CCCCC3)cc2CC(=O)N([C@@H](C)CO)C[C@@H]1C	17	9
57	CCNC(=O)C[C@@H]1CC[C@@H]2[C@@H](COc3ccc(NC(=O)Nc4ccc(C)cc4)cc3C(=O)N2C)O1	3	-5
58	C[C@@H]1CN([C@H](C)CO)C(=O)Cc2cc(NC(=O)CCCCCC(=O)Nc3ccccc3N)ccc2O[C@@H]1CN(C)S(=O)(=O)c1ccc(F)cc1	0	1
59	C[C@H](CO)N1C[C@H](C)[C@H](CN(C)Cc2ccc(C(=O)Nc3ccccc3N)cc2)Oc2ccc(NC(=O)NC3CCCCC3)cc2CC1=O	-18	-13
60	O=S(=O)(NCC[C@H]1CC[C@H](NS(=O)(=O)c2ccccc2Cl)[C@@H](CO)O1)c1ccc(Cl)cc1	-23	-15
61	O=C(Nc1ccccc1F)N[C@@H]1CC[C@H](CC(=O)N2CCCCC2)O[C@@H]1CO	0	4
62	CC(C)NC(=O)N(C)C[C@@H]1Oc2ccc(NC(=O)Cc3ccccc3)cc2C(=O)N([C@H](C)CO)C[C@H]1C	6	4
63	C[C@@H]1CN([C@@H](C)CO)C(=O)Cc2cc(NC(=O)Cn3cnnn3)ccc2O[C@@H]1CN(C)S(=O)(=O)c1ccc(Cl)cc1	21	4
64	C[C@@H]1CN([C@H](C)CO)C(=O)c2cc(-c3ccccc3F)cnc2O[C@@H]1CN(C)C(=O)c1ccccn1	12	5
65	CCC(=O)N1CC2(C1)[C@@H](c1ccc(-c3cccc(F)c3)cc1)[C@@H](CO)N2CC1CC1	-9	-3
66	COc1ccccc1S(=O)(=O)N(C)C[C@@H]1Oc2cc(C#CCC(C)C)ccc2S(=O)(=O)N([C@H](C)CO)C[C@@H]1C	?	nt
67	CN1CCCCN2[C@H](CO)[C@@H](c3ccc(C#Cc4ccccc4F)cc3)[C@H]2C1	?	nt
68	C[C@@H]1CN([C@H](C)CO)C(=O)Cc2cc(NC(=O)Nc3ccc4c(c3)OCO4)ccc2O[C@H]1CN(C)C	5	-3
69	CCC(=O)N[C@H]1CC[C@@H](CCn2cc(CN(C)C)nn2)O[C@@H]1CO	1	3
70	Cc1ccc(S(=O)(=O)Nc2ccc3c(c2)C(=O)N([C@@H](C)CO)C[C@@H](C)[C@H](CN(C)Cc2ccc(C(=O)O)cc2)OCCCC[C@@H](C)O3)cc1	18	12
71	Cc1ccc(-c2ccc3c(c2)O[C@@H](CN(C)Cc2ccccc2)[C@@H](C)CN([C@H](C)CO)S3(=O)=O)cc1	?	nt
72	O=C(N[C@@H]1CC[C@@H](CCNS(=O)(=O)c2cccc(Cl)c2)O[C@@H]1CO)c1ccncc1	-13	-9
73	C[C@@H]1CN([C@@H](C)CO)C(=O)c2cc(NC(=O)Cc3ccccc3)ccc2O[C@@H]1CN(C)C(=O)Nc1ccc2c(c1)OCO2	5	2
74	COc1ccccc1NC(=O)N[C@@H]1CC[C@H](CCNS(=O)(=O)c2ccc(F)cc2)O[C@@H]1CO	-3	-4
75	O=C(N[C@H]1CC[C@H](CCn2cc(C3CCCC3)nn2)O[C@@H]1CO)c1cccnc1	-4	-10

# Screening results as filed in PubChem BioAssay.

# Not all compounds are listed; rates above refer to the full screens.
